# Bioassay records: PubChem, ICCB-Longwood Screening Facility, Harvard Medical School
# BmaI1 enzyme: BmaI1 acyl-homoserine lactone synthase inhibition – biochemical, fluorescence intensity, with counterscreen (AID 720554) | BmaI1 enzyme assay, fluorescence intensity; stronger effect = higher value; test concentration not given here; a few actives read low; strong numbers were not always called active | inhibition, % | 12,000 compounds, 0.4% hits;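 active = both replicates within 2 robust z-scores of the inhibited control and a quiet counterscreen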;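 note: 0% = uninhibited enzyme and 100% = inhibited control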
# BmaI1 enzyme counterscreen: second read-out of BmaI1 enzyme, no call of its own (marks repeat the call); inhibition, %; measured here: counterscreen; design of the counterscreen not given here;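 first of two replicates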
# * = called active by the depositor. These rows are one share of the data. The share of hits here may be higher or lower than overall.
item	SMILES	BmaI1 enzyme	BmaI1 enzyme counterscreen
1	Cc1noc(C)c1CCOC(=O)c1cc(-c2ccc(Br)cc2)nc2ccccc12	8	-4
2	CNC(=O)c1sc(NCc2ccco2)nc1C	77	14
3	O=C(O)c1ccc2c(c1)-c1ccccc1C2	8	0
4	O=S(=O)(/C=C/c1ccccc1)NC1CCCCC1	10	4
5	COc1ccc(C(CNc2ncnc3sccc23)N2CCCC2)cc1 (configuration not stated)	20	5
6	O=C(OCc1nc2ccccc2s1)c1ccc(S(=O)(=O)N2CCCC2)cc1	16	14
7	Cc1nn(-c2ccccc2)c(Cl)c1C(=O)OCC(N)=O	8	8
8	Cc1cc(C(=O)COc2cccc3c2OC(C)(C)C3)c(C)n1C1CC1	20	10
9	CC1CCc2sc(C(=O)NN)cc2C1 (configuration not stated)	-17	-16
10	CC(=O)Nc1ccc(N=Nc2ccc(O)cc2)cc1	25	44
11	CCCn1c(SCc2c(C(=O)OCC)oc3ccccc23)nnc1-c1ccncc1	11	-4
12	O=C(COC(=O)c1ccc(S(=O)(=O)C(F)F)cc1)c1ccc2c(c1)OCCO2	3	2
13	CC1CN(CC(=O)Nc2c(Cl)cccc2Cl)CC(C)O1 (configuration not stated)	10	10
14	Cc1ccc(C)n1-c1ccc(C(=O)N2CCC(=O)CC2)cc1	-46	-29
15	Cn1ccsc1=NC(=O)c1cc(Cl)c2c(c1)OCCCO2	24	14
16	Cn1c(C(=O)N2CCCc3ccccc32)cc2c(=O)n3ccccc3nc21	16	4
17	COCCn1c(O)c(/C=N/N=C2/C(=O)N(C)c3ccccc32)c(=O)[nH]c1=S	9	2
18	O=C1c2ccccc2C(=O)N1Cc1ccc(Cl)cc1	12	1
19	C=CCn1c(C)cc(C(=O)CSCc2nc3sc(C)c(C)c3c(=O)[nH]2)c1C	6	2
20	Cc1ccc(C)c(N=C2N(C)CC(=O)N2Cc2cccnc2)c1	22	12
21	CCCCn1c(SCN2C(=O)c3ccccc3C2=O)nc2cc(S(N)(=O)=O)ccc21	6	-4
22	COc1ccc(C(=O)OCc2c(C)noc2C)cc1S(=O)(=O)N1CCCc2ccccc21	14	6
23	NC(=O)c1ccc(NC(=O)CCCSc2ccccc2)cc1	8	14
24	O=C(c1cc(C2CC2)nn1-c1ccccc1)N(CC1CCCO1)c1nc2ccccc2s1 (configuration not stated)	17	5
25	NS(=O)(=O)c1ccc(CNC(=O)c2cccc(S(=O)(=O)NCC(F)(F)F)c2)cc1	-4	-2
26	COc1cccc(N2CCN(CC(=O)C34CC5CC(CC(C5)C3)C4)CC2)c1	38	2
27	CCCn1c(=S)[nH]c2sc(CC)cc2c1=O	56	42
28	COc1ccccc1OC/C(O)=C(\C#N)c1nc2ccccc2[nH]1	11	7
29	CCOC(=O)C1CCCN(CC(O)COc2ccc(OC)cc2C(C)(C)C)C1 (configuration not stated)	24	12
30	COc1ccc(CCNC(=O)c2ccc(S(=O)(=O)N3CCCC3)cc2)cc1	3	-2

# Ordered by SMILES length (largest number first): part of the list above
item	SMILES	BmaI1 enzyme	BmaI1 enzyme counterscreen
8	Cc1cc(C(=O)COc2cccc3c2OC(C)(C)C3)c(C)n1C1CC1	20	10
13	CC1CN(CC(=O)Nc2c(Cl)cccc2Cl)CC(C)O1 (configuration not stated)	10	10
10	CC(=O)Nc1ccc(N=Nc2ccc(O)cc2)cc1	25	44

# The list continues.
item	SMILES	BmaI1 enzyme	BmaI1 enzyme counterscreen
31	O=c1ccc(S(=O)(=O)N2CCCC2)cn1Cc1coc(-c2ccccc2)n1	13	6
32	CCc1ccc(CN(C)C(=O)C2=CC=CN3CCS(=O)(=O)N=C23)cc1	17	10
33	COc1ccccc1-n1nnnc1SC(C)c1nnc(-c2ccc(F)cc2)o1 (configuration not stated)	20	7
34	CC1=NNC(=O)/C1=C/C1CC=CCC1 (configuration not stated)	65	16
35	N#Cc1c(-c2ccc(Cl)cc2)c(C#N)c2sc3ccccc3n2c1=O	12	4
36	COC(=O)C1CC(O)CN1S(=O)(=O)c1ccc2ccccc2c1 (configuration not stated)	4	2
37	NC(=O)/C(=C\c1ccccc1O)C(N)=S	60	28
38	CCOc1ccccc1COC(=O)c1cccc(-n2cnnn2)c1	24	14
39	N#CC(C#N)=Cc1ccc(-c2ccc(SC(F)F)cc2)o1	15	18
40	CCn1cc(C(=O)N(Cc2nc3ccccc3c(=O)[nH]2)C(C)C)c(=O)c2ccc(C)nc21	32	7
41	COC(=O)c1cc(OC)c(OC)cc1NCC(=O)N1CCOCC1	0	-5
42	CC1CN(C(C(=O)c2c[nH]c3ccccc23)c2ccccc2)CC(C)O1 (configuration not stated)	14	9
43	O=C(CCc1ccc(S(=O)(=O)N2CCOCC2)cc1)OCC(=O)c1ccc2c(c1)OCCO2	32	-2
44	C=CCn1c(SCC(=O)NC(=O)NCc2ccco2)nc2ccc(Cl)cc2c1=O	7	0
45	N#CCCn1nc(-c2ccccc2)cc1Nc1ccccc1N	82	35
46	COc1ccc(C(=O)CSc2ncccn2)c(OC)c1	12	2
47	CCOC(=O)Cn1nc(-c2ccc(F)cc2)oc1=O	1	2
48	Clc1ccc(COC(Cn2ccnc2)c2ccc(Cl)cc2Cl)cc1 (configuration not stated)	-2	0
49	Brc1ccccc1-c1ccc(/C=N/N2CCOCC2)o1	28	6
50	CCn1c(-c2ccc3c(c2)OCCO3)cnc1SCC(=O)Nc1sccc1C#N	21	7
51	CCCC(C)NC1=NCCCCC1 (configuration not stated)	8	5
52	CC(=O)NCCNc1nc(-c2cccnc2)nc2ccccc12	3	4
53	Cc1cnc(C(=O)OCc2cc(=O)n3ccsc3n2)cn1	8	2
54	O=C(CN(Cc1ccco1)C(=O)c1cc(=O)[nH]c2ccccc12)Nc1ccccc1C(F)(F)F	6	0
55	O=C(COC(=O)/C=C/c1cccs1)Nc1nc2ccccc2s1	11	0
56	O=C(OCC(=O)N(Cc1ccccc1)C1CCS(=O)(=O)C1)c1ccc(-n2cnnn2)cc1 (configuration not stated)	6	8
57	Cc1cc(C)nc(SC2=C(Nc3ccc(O)cc3)C(=O)N(Cc3ccccc3)C2=O)n1	86*	26*
58	O=C(O[C@H]1[C@H](Oc2ccccc2COC(=O)C2(O)C=CCCC2=O)O[C@H](CO)[C@@H](O)[C@@H]1O)c1ccccc1 (some centres not stated)	64	30
59	CCN1CCCC1CNC(=S)Nc1cccc(C)c1 (configuration not stated)	-6	2
60	NC(=O)C1CCN(c2ccnc3cc(Cl)ccc23)CC1	14	10
61	O=C(c1nn(-c2ccccc2)c(=O)c2ccccc12)N1CCN(c2ccccc2)CC1	7	-2
62	COc1ccc(NC(=O)CCc2c(C)noc2C)cn1	14	14
63	Sc1ccc2c(c1)OCCCO2	38	4
64	Cc1cc(C(=O)Nc2ccc3c(c2)-c2ccccc2C3)no1	12	11
65	O=C(NCC1CCCCC1)c1ccc(F)c(S(=O)(=O)N2CCOCC2)c1	9	6
66	O=C1CC[C@@H](C(=O)N2CSC[C@H]2C(=O)O)N1	7	16
67	Cc1cccc(OCCC(=O)OCc2ncc(-c3ccccc3)o2)c1	4	0
68	CCCNC(=O)CSc1nc2sc(C)c(C)c2c(=O)n1C1CCCC1	2	-8
69	COC(=O)c1ccc(C(c2c(N)n(CC(C)C)c(=O)[nH]c2=O)N2CCN(S(=O)(=O)c3ccc(C)cc3)CC2)cc1 (configuration not stated)	20	12
70	CC(C)(C)NC(=O)Cn1nnc(-c2cccc(C(F)(F)F)c2)n1	17	12
71	OC(CNc1nc(C(F)(F)F)nc2ccccc12)c1ccccc1 (configuration not stated)	15	10
72	CC(Sc1nc(N)nc(N)n1)C(=O)NC1(C#N)CCCCC1 (configuration not stated)	5	14
73	COc1cc(C(=O)N/N=C(\C)c2ccc(-n3ccnc3)cc2)cc(OC)c1OC	13	50
74	CCCCn1nnnc1COC(=O)c1cc(OC)c(OC)cc1NC(=O)c1ccco1	18	-4
75	Cc1cc(-n2c(C)cc(C(=O)COC(=O)C(C)Nc3ncnc4sc(C)c(C)c34)c2C)no1 (configuration not stated)	16	8
76	CCOc1ncccc1C(=O)Nc1cc(Cl)ccc1N1CCOCC1	0	0
77	O=C(Oc1ccc(-c2nnco2)cc1)c1cc(-c2ccccc2)nn1-c1ccccc1	22	14
78	CCN(C(=O)CSc1nnc(C2CC2)n1-c1ccccc1)C1=CCCC1	-2	-4
79	COc1cc(C)c(CSCC(=O)O)cc1OC	9	4
80	Cc1nc2cc(C(=O)Nc3ccc(Cn4ccnc4)cc3)ccc2n1-c1ccccc1	40	24
81	CO[C@H]1/C=C/O[C@@]2(C)Oc3c(C)c(O)c4c(O)c(c(C=NN5CCN(C)CC5)c(O)c4c3C2=O)NC(=O)/C(C)=C\C=C\[C@H](C)[C@H](O)[C@@H](C)[C@@H](O)[C@@H](C)[C@H](OC(C)=O)[C@@H]1C	-22	-12
82	CCOc1ncccc1C(=O)OCC(=O)N1C(C)CCCC1C (configuration not stated)	0	3
83	CC(C)[C@H](NC(=O)c1cccc(S(=O)(=O)N2CCOCC2)c1)C(=O)Nc1nc2ccccc2s1	24	8
84	CCC(C)c1ccc(S(=O)(=O)N2CCN(C(C)CC(=O)O)CC2)cc1 (configuration not stated)	-7	-3
85	CS(=O)(=O)Cc1ccc(C(=O)O)cc1	5	2
86	O=C(OCc1cc(F)cc2c1OC(c1ccccc1)OC2)C1CC(=O)N(Cc2ccco2)C1 (configuration not stated)	34	14
87	CC1CCCC(NC(=O)CSc2ccc3c(c2)OCCO3)C1C (configuration not stated)	12	12
88	O=P1(N(CCCl)CCCl)NCCCO1 (configuration not stated)	8	16
89	CN(C)S(=O)(=O)c1ccc(C(=O)OC2CCCC2)cc1	10	9
90	CN(C)S(=O)(=O)c1ccc(C(=O)OCC(N)=O)cc1	0	-3

# Retrieved one by one from the entries so far:
item	SMILES	BmaI1 enzyme	BmaI1 enzyme counterscreen
63	Sc1ccc2c(c1)OCCCO2	38	4
66	O=C1CC[C@@H](C(=O)N2CSC[C@H]2C(=O)O)N1	7	16

# Structures shown so far with a tert-butyl group (2):
item	SMILES	BmaI1 enzyme	BmaI1 enzyme counterscreen
29	CCOC(=O)C1CCCN(CC(O)COc2ccc(OC)cc2C(C)(C)C)C1 (configuration not stated)	24	12
70	CC(C)(C)NC(=O)Cn1nnc(-c2cccc(C(F)(F)F)c2)n1	17	12

# (listing goes on)
item	SMILES	BmaI1 enzyme	BmaI1 enzyme counterscreen
91	N#Cc1ccccc1COC(=O)C1COc2ccccc2O1 (configuration not stated)	14	-6
92	Cc1nn(-c2ccccc2)c(C)c1NC(=O)CN1CC(C)OC(C)C1 (configuration not stated)	19	-2
93	O=C(NC(=S)Nc1ncccn1)c1ccc(F)cc1	20	34
94	Cc1cc(C2N=C(N)Nc3nc4ccccc4n32)c(C)n1-c1ccccc1F (configuration not stated)	36	68
95	CCC(=O)NS(=O)(=O)c1ccc(-c2c(-c3ccccc3)noc2C)cc1	8	14
96	O=C(OCC(=O)N1CCCCCC1)c1ccccc1	8	9
97	CN(CC(=O)Nc1ccc(F)cc1)C(=O)CCc1ccccc1	11	12
98	CCCc1nc2ccccc2n1CC(=O)Nc1ccc(S(=O)(=O)N(C)C)cc1	-6	-8
99	CC(=O)Nc1ccc(C(=O)OCC(=O)N2CCCCC2C)cc1 (configuration not stated)	6	8
100	CN(C)c1cccc(C(=O)NN2C(=O)NC3(CCCCC3)C2=O)c1	-28	-8
101	O=C(CCN1c2ccccc2Sc2ccccc21)N1CCN(C(=O)c2ccco2)CC1	39	-20
102	O=C(Cc1csc(-c2ccccc2)n1)N1CCCC1c1cccs1 (configuration not stated)	14	13
103	O=C1CSc2ccc(C(=O)NCc3ccccn3)cc2N1	5	2
104	COc1cc(OC)cc(-c2nnc(SCCOc3cc(C)ccc3C)o2)c1	8	7
105	CCOCC(=O)OCc1ccc(COC(=O)COCC)cc1	10	1
106	O=C(CN1CCN(S(=O)(=O)c2ccccc2)CC1)Nc1ccc(N2CCOCC2)cc1	12	6
107	Cc1c(C(=O)O)sc2nc(CSc3nnc(-c4ccc(F)cc4)n3C)[nH]c(=O)c12	3	2
108	Cc1cc(C(=O)COC(=O)c2ccccc2NS(=O)(=O)c2ccc3c(c2)OCCO3)c(C)n1C	10	0
109	CC(C)NC(=O)CC1(C(=O)O)CCCC1	2	-2
110	NC(=O)C1CCN(C(=O)c2ccc3c(c2)S(=O)(=O)c2ccccc2C3=O)CC1	17	0
111	CCCn1nc(C(=O)NCCN2CCOCC2)c2ccccc2c1=O	7	2
112	Cc1cc2nc(NCCCN3CCCC3=O)c3ccccc3n2n1	13	7
113	CC(=O)Nc1cccc(C(=O)Nc2ccc(N3CCCCC3)cc2)c1	84*	7.0*
114	O=C1OCCC1Oc1ncnc2ccccc12 (configuration not stated)	6	-2
115	Cc1noc(C)c1COc1ccc(CC(=O)NC2CCCc3ccccc32)cc1 (configuration not stated)	16	10
116	COC(=O)c1ccc(CNC(=O)Cn2cnnn2)cc1	-2	0
117	N#Cc1nc(-c2ccccc2)oc1N1CCN(C(c2ccccc2)c2ccccc2)CC1	4	2
118	C=C1c2ccccc2NC(=S)N1c1ccc(OC)cc1	2	2
119	CC(=O)NCc1ccc(C(=O)CSc2nnc(-c3ccoc3C)n2C)s1	20	14
120	N#Cc1cccc(C(=O)NCC(F)(F)F)c1	11	10
121	Cc1ccc(O)c(C(=O)c2cnc3onc(-c4ccc(F)cc4)c3c2)c1	16	1
122	CCC(c1nnc(SCC(=O)Nc2nc(-c3ccc(OC)cc3)cs2)o1)N(C)C (configuration not stated)	42	4
123	Cc1nc(SCC(=O)c2ccc(NS(C)(=O)=O)cc2)n(C2CCCCC2)c1C	18	5
124	Cc1n[nH]c(C)c1NC(=O)CN(C)c1nc(-c2cccnc2)nc2ccccc12	13	16
125	O=C(Cc1nc2ccccc2n1C(F)F)c1ccccc1	-3	-8
126	COc1ccc(N2C(=O)c3ccccc3NC23CC2CC=CC23)cc1 (configuration not stated)	8	2
127	N#Cc1cc(C(=O)c2cc(F)ccc2O)cn(C2CC2)c1=O	10	9
